CSC inhib: cancer stem cell viability inhibitors, primary screen, luminescence; inhibition, % at 7.5 µM; hit rate 1.1% among 300,000; cancer stem cell-like cells viability;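 active = mean at 75% or more and at least half the replicates too; tested in HMLE shEcad cells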;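 note: 0% = median of negative and 100% = median of positive control wells; the first replicate is given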
eIF4H FP inh: human eIF4H binding inhibitors, primary screen, translation initiation inhibitor project, biochemical, uHTS, fluorescence polarization; inhibition, % at 35 µM; eIF4H fluorescence polarization binding assay; hit rate 0.94% among 290,000;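 active = 50% or more with normal probe brightness, or confirmed in later tests; about a fifth of its hits are not listed in these tables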;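 note: calls also rest on retests at 20 µM and on dose response follow-up; 0% = protein and probe with vehicle and 100% = probe without protein; strong numbers were not always called active; many hits fall short of the cut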
PABP FP inh: PABP poly(A) RNA binding inhibitors, primary screen, biochemical, fluorescence polarization, uHTS. Polyadenylate-binding protein 1 (Homo sapiens), P11940. inhibition, % at 35 µM. hit rate 1% among 290,000;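 active = 50% or more with normal probe brightness, or confirmed in later tests; about a fifth of its hits are not listed in these tables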;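 note: calls also rest on retests at 20 µM and on dose response follow-up; controls were probe without protein and protein plus probe with vehicle; some compounds called inactive have numbers as strong as hits; many hits fall short of the cut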
Yeast UUG start: modulators of yeast start codon fidelity, primary screen, whole organism, S. cerevisiae, single point, plate reader; S. cerevisiae UUG-firefly luciferase reporter, luminescence/redox ratio; activity score, % at 18.7 µM; hit rate 0.13% among 350,000; AID 602363, 2012;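 active = replicate mean at a twofold rise or more, about +100% in these data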;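 note: firefly luciferase made from a UUG start codon reports start codon fidelity; reporter light over untreated wells divided by growth signal over untreated wells; some hits fall short of that in this replicate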
MT1-MMP act inh: blockers of MT1-MMP proenzyme processing, primary screen, HT1080 RFP-PRO-GFP cells, GFP/RFP fluorescence | Matrix metalloproteinase-14 (Homo sapiens), P50281 | GFP/RFP ratio fluorescence, overnight; percent of plate control window, DMSO zero | GFP/RFP ratio change, % at 20 µM | hit rate 0.061% among 360,000 | AID 651647, 2012;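 active = GFP/RFP ratio change of at least 30% with cell ATP level not reduced by more than half and red fluorescence within 50% of control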; note: strong numbers were not always called active
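system = RFP-PRO-GFP reporter HT1080 cells | dosing = 20 µM single dose, 1% DMSO | timing = overnight cell settling, then overnight compound exposure, 37 °C, 5% CO2 | read-out basis = GFP/RFP fluorescence ratio | controls = DMSO and RFP-L50D-GFP cell wells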
Rce1 inh: yeast Rce1p protease inhibitors, primary screen, biochemical, fluorescence, cell-free homogeneous. CAAX prenyl protease 2 (Saccharomyces cerevisiae (strain ATCC 204508 / S288c)), Q03530. yeast membranes, quenched prenylated peptide cleavage fluorescence. calls only. hit rate 0.27% among 290,000;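 active = fall in fluorescence gain of 50% or more versus controls, with final raw signal at or below 3038400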;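 note: plate controls were neutral control wells for no effect and wells lacking membranes for full effect; tested at 10 µM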
Target sequence (Q03530 whole entry, looked up): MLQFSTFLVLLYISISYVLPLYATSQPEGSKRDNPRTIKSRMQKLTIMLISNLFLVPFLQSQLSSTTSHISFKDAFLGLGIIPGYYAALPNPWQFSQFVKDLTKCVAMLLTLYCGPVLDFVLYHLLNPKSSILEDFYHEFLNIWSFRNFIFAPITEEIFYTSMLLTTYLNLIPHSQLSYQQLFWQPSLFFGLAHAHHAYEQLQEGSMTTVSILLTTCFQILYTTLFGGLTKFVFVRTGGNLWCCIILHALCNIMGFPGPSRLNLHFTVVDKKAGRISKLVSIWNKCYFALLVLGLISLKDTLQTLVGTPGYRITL
Env fusion inh: inhibitors of HIV-1 Env-driven cell-cell fusion, primary screen, HeLa-JRFL effector, CEM21 target cells, luciferase. hit rate 1.1% among 360,000. inhibition, % at 12.3 µM;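 active = mean replicate inhibition score of at least 50 and every replicate individually at or above 50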;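 note: 0% = plate neutral controls and 100% = maraviroc near 300 nM; one replicate is shown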
eIF4H FP inh retest: also measured in eIF4H FP inh; calls as there; inhibition, %; compound at 20 µM; confirmation average;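 mean of two retest wells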
PABP FP inh retest: recorded beside PABP FP inh, whose call it bears; inhibition, %; compound at 20 µM; confirmation repeats;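 mean of two retest wells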
MT1-MMP act inh RFP: second read-out of MT1-MMP act inh, no call of its own (marks repeat the call); RFP signal change, %; measured here: RFP expression control read;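 0 = vehicle wells; hits needed this value within 50% of zero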
* = called active by the depositor; i = inactive; / = not tested or not shown. A portion of the library (hit frequency here may not be typical).

SMILES	CSC inhib	eIF4H FP inh	PABP FP inh	Yeast UUG start	MT1-MMP act inh	MT1-MMP act inh RFP	Rce1 inh	Env fusion inh	others
C[N+]1([O-])[C@@H]2Cc3cc4c(cc3[C@@H]1Cc1cc3c(cc12)OCO3)OCO4 (some centres undefined)	-5	8	11	-16	4	3	i	8
COc1cccc(NC(=O)Cn2c(CCC(=O)O)ccc2-c2ccc(Cl)cc2)c1	-2	-6	-4	/	-4	-2	i	2
COc1ccc(/C=N/NC(=O)c2cc(=O)[nH]c3ccccc23)cc1OC	-13	-3	-2	/	-6	-4	i	4
CC(C)c1nc(SCC(=O)NC(=O)NC(C)(C)C)n[nH]1	-2	-11	-11	/	-3	-3	i	3
Cc1cc(NC(=O)Cn2nc(C(=O)O)c3ccccc3c2=O)c([N+](=O)[O-])cc1C	2	-3	-1	-17	1	5	i	4
CCCC(=O)c1ccc2c(c1)OCCO2	-7	8	-3	-6	2	2	i	-72
COc1ccc(CCNc2ncnc3c2[nH]c2cc(OC)c(OC)cc23)cc1OC	-7	-6	-2	-3	3	0	i	23
COc1ccc(C(OCC(O)CNCCc2ccccc2)c2ccc(OC)cc2)cc1 (centres undefined)	24	-3	-7	-7	-1	1	i	26
COc1ccccc1-c1csc(-n2ncc(C#N)c2N)n1	/	-5	-31	-16	0	1	i	-10
CC[C@H](C)[C@H](NC(N)=O)C(=O)NCCc1ccc(OC)c(OC)c1	-13	6	-9	/	3	3	i	-13
CC1CCCN(C(=O)Cn2nnc(-c3ccc(S(C)(=O)=O)cc3)n2)C1 (centres undefined)	-11	6	9	-14	1	-1	i	4
COC(=O)CNC(=O)COC(=O)/C=C/c1ccc2ccccc2n1	-6	-6	-5	/	-3	-4	i	33
O=C(NC1CC2CCCC(C1)N2Cc1ccccc1)c1cccc(F)c1 (centres undefined)	1	-5	2	-5	8	6	i	-5
CSCCNC(=O)c1ccc(OC2CCN(S(=O)(=O)N(C)C)CC2)cc1	/	-5	4	-15	4	3	i	19
Cc1csc2ncc(C(=O)N3CCCc4ccccc43)c(=O)n12	/	7	-4	-3	1	7	i	/
CN(Cc1ccccc1)c1ccc(N2C(=O)CCC2=O)cc1[N+](=O)[O-]	13	-6	-5	2	7	5	i	-14
Brc1ccc(NC(c2ccccc2)c2ccncc2)cc1 (centres undefined)	30	-6	3	-22	0	0	i	-4
COc1cccc(-c2noc(C3CCCN(C(=O)CC(C)(C)C)C3)n2)c1 (centres undefined)	-14	4	-6	/	2	-5	i	11
Cc1ccccc1CNC(=O)COc1ccccc1	-5	-1	5	-16	-1	4	i	7
CCCc1nc(SCC(=O)N2CCCc3ccccc32)c2c(=O)n(C)c(=O)n(C)c2n1	7	15	-11	4	-12	-22	i	/
CC(=O)Nc1cc[n+](CC(=O)c2cccc([N+](=O)[O-])c2)cc1	-5	-6	6	-18	-1	1	i	3
CC(=O)Nc1ccc(S(=O)(=O)Nc2cccc(-c3csc(C)n3)c2)cc1	-6	-3	6	4	4	-8	i	5
CC(C)(C)NC(=S)N/N=C/c1c(Cl)cccc1Cl	0	7	6	/	-6	-13	i	9
CCn1c(SCC(=O)Nc2cc(OC)ccc2OC)nc2c(c1=O)SCC2	0	-8	4	11	0	-8	i	10
CCOc1ccc(Cc2c(C)[nH]c3ccc(C(=O)O)cc3c2=S)cc1	-15	39	50	-25	-5	6	i	5
N/C(=N\OC(=O)c1cccc(C(F)(F)F)c1)c1cnccn1	-17	90	-5	-12	-1	0	i	-8	eIF4H FP inh retest=-5;PABP FP inh retest=-1
O=C(O)CCCCCCC1C(=O)NC(=O)N1CCC(O)C1CCCCC1 (centres undefined)	-2	-6	19	-6	5	11	i	-5
CNS(=O)(=O)c1ccc(Oc2ccc(S(=O)(=O)NC)cc2)cc1	6	-12	-9	-24	1	-10	i	/
Cn1c(SCc2c(Cl)cccc2Cl)nnc1-c1cccs1	-9	2	-1	-4	-1	1	i	-106
O=C(COC(=O)/C=C/c1cccc([N+](=O)[O-])c1)NCc1ccco1	3	26	4	/	0	5	i	-10
CCC(C(=O)OC)n1cnc2c(cnn2-c2ccc(Cl)cc2)c1=O (centres undefined)	7	3	-5	-10	5	-7	i	/
COc1ccc(-c2csc3ncn(CC(=O)N4CCOCC4)c(=O)c23)cc1	/	-5	-10	/	-4	0	i	4
O=C(O)CC/C(=N/NC(=O)CNC(=O)Cc1ccccc1)c1ccccc1	-8	0	3	/	6	4	i	1
COc1ccc(/C=N/NC(=S)NCC2CCCO2)cc1 (centres undefined)	-18	-2	-4	/	-1	1	i	4
Cc1ccc(OC(=O)COc2ccccc2)c(-n2nc3ccccc3n2)c1	-13	-5	-5	-20	15	4	i	-226
CC(=O)Nc1ccc(S(=O)(=O)c2ccc(N)cc2)cc1	-15	6	26	-8	1	3	i	-6
CC(=O)c1ccc2c(c1)CCN2	/	/	/	4	-1	2	/	3
Cc1ccc(SCc2ccc(C(=O)NCc3cccnc3)cc2)cc1	40	-9	7	-21	0	-18	i	5
Cc1cccc2cc(C#N)c(NCCNC(=O)c3ccccc3)nc12	/	/	/	-13	-3	-13	/	-27
N#Cc1c(Cl)nsc1NCCN1CCOCC1	3	4	-8	-19	1	0	i	10
CCN1C(=O)C(CC(=O)Nc2ccc(F)cc2)N(Cc2ccco2)C1=S (centres undefined)	4	-3	1	1	-2	1	i	16
COc1cccc(-c2cc3nc4c(c(N5CCC6(CC5)OCCO6)n3n2)CCCC4)c1	90*	-7	-4	-21	-1	-9	i	/
CC(=O)NC(CC(=O)Nc1ccc(S(=O)(=O)Nc2nccs2)cc1)c1ccccc1 (centres undefined)	/	/	/	-9	1	3	/	0
CN1CCN(c2ccc([N+](=O)[O-])cc2/C=N/NC(=O)c2ccc(F)cc2)CC1	/	-16	4	-7	-6	0	i	-130
CC(C)n1ncc2c(C(=O)Nc3ccc(S(C)(=O)=O)cc3)cc(C3CC3)nc21	/	/	/	-6	2	-2	/	-8
COCCCNC(=O)CN1C(=O)CSc2ccc(S(=O)(=O)N3CCOCC3)cc21	-5	-3	-1	-11	-2	2	i	-5
Cc1ccc(OCCC(=O)OCC(=O)Nc2ccc(C)cc2Cl)cc1	8	/	/	-5	-2	2	i	4
O=C(Nc1ccccc1)C1=C[C@@H](c2coc3ccccc3c2=O)C[C@@H](OCc2ccc(CO)cc2)O1	0	-13	9	-9	7	-1	i	-10
COCCN1C(=O)N[C@@H](c2cccc(C(F)(F)F)c2)[C@H](C(=O)OC)[C@H]1C	/	/	/	13	2	0	i	-8
COc1cccc(C(=O)COC(=O)C(C)N2C(=O)c3ccccc3C2=O)c1 (centres undefined)	-2	3	-3	5	6	8	i	/
CNC(=S)NNC(=O)c1ccc(C(C)(C)C)cc1	7	-2	-4	/	-4	-6	i	8
COc1ccc(S(=O)(=O)Nc2cc(S(=O)(=O)N3CCOCC3)ccc2OC)cc1	-9	/	/	-9	2	0	/	/
O=c1c2ccccc2nc2n1C(CSCc1ccccc1)CS2 (centres undefined)	-9	3	26	-42	-6	-22	i	/
COc1ccccc1C1C(C#N)=C(N)Oc2c1c(-c1ccccc1)nn2-c1ccccc1 (centres undefined)	41	-4	-2	-4	6	-18	i	6
Cc1noc(C)c1COC(=O)CN(C)S(=O)(=O)c1ccc(Cl)cc1	/	5	3	-10	7	2	i	-30
COc1ccc(N2CCN(c3nc4c(c(=O)n(C)c(=O)n4C)n3CCCc3ccccc3)CC2)cc1	-4	-8	5	6	4	1	i	/
CC1(C)CC(NS(=O)(=O)c2ccc(C(C)(C)C)cc2)CC(C)(C)N1	-15	2	12	-8	6	6	/	-4
CC(Cc1ccccc1)N1CCCC1=O (centres undefined)	/	/	/	-8	2	3	/	-1
O=C1CN(S(=O)(=O)c2cccc(Cl)c2Cl)CCN1	/	/	/	-15	11	1	/	-3
CC(C)(C)c1ccc(-c2noc(-c3ccno3)n2)cc1	10	5	2	-27	0	-1	i	-106

The listing continues.
SMILES	CSC inhib	eIF4H FP inh	PABP FP inh	Yeast UUG start	MT1-MMP act inh	MT1-MMP act inh RFP	Rce1 inh	Env fusion inh	others
CC1S/C(=N/N=C/c2ccco2)N(Cc2ccc(F)cc2)C1=O (centres undefined)	-8	6	3	/	0	0	i	-1
O=C(c1ccc(Cl)c(S(=O)(=O)N2CCOCC2)c1)N1CCCCCC1	-24	2	0	-14	0	-1	i	-1
O=C(CSc1nnnn1C1CCCCC1)Nc1cccc(NC(=O)c2ccco2)c1	1	-5	-2	-5	3	-3	i	22
CC(C)Nc1nnc(SCC(=O)c2c[nH]c3ccccc23)s1	/	-2	-5	-19	2	1	i	1
COc1cc(OC)c(OC)cc1CN(C)CCc1ccccn1	-13	1	9	-14	7	6	i	/
